# Source: PubChem (several laboratories)
# 26S disassembly – blocks ATP-dependent breakdown of the yeast 26S proteasome. AID 751. anti-FLAG beads, GFP-proteasome disassembly, flow cytometry. inhibition of disassembly, % (no concentration beside the values). actives 0.2% (n = 24,000);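 active = above 40%; inconclusive = likely self-fluorescent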;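 also: plate controls were ATP control with full disassembly for no effect and ATP-gamma-S intact proteasomes for full effect; higher percent means more bead fluorescence retained so stronger block of disassembly; stock transfer was 100 nL into about 10 µL; wells with too few beads may also be inconclusive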
# VCAM-1 up – boosters of cytokine-driven VCAM-1 levels – cell-based, plate reader, pooled HUVEC, TNFa stimulus (AID 455) | HUVEC TNFa-induced VCAM-1 immunofluorescence, plate reader; numbers were filed only for top-ranked candidate wells | augmentation, % at 5 µM | actives 0.2% (n = 10,000);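 active = a compound raising TNF-alpha-driven VCAM-1 surface staining, with its hit status upheld on visual or statistical review; inactive = the rest, including hits rejected on review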;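 also: 0% = TNFa with vehicle and 100% = strongest image-checked hit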
# An asterisk follows results filed as active; i = inactive; ? = inconclusive; nt = not tested or not shown. The list is partial; rates above refer to the full screens.
1	O=C(CNC(=O)c1ccco1)OCN1C(=O)c2ccccc2C1=O
2	COC(=O)CNc1nc(C2CC2)nc2c1nnn2Cc1ccccc1Cl
3	COc1cccc2cc(C(=O)OC3CCN(C)CC3)c(=O)oc12
4	CCCc1cc(=O)n2[nH]c(C)cc2n1
5	Cc1ccc(CCNC(=O)C2CCCN(S(=O)(=O)c3c(C)noc3C)C2)cc1 (stereo not given)
screen / no. | 1 | 2 | 3 | 4 | 5
26S disassembly | -0.5 | -1.1 | -0.5 | -0.1 | -0.3
VCAM-1 up | nt | i | i | nt | nt

6	Cc1nc(N2CCC(C)CC2)c2c(C)c(C(=O)O)sc2n1
7	CCn1c(=O)cc(OCC(=O)N2CCCCCC2)c2ccccc21
8	O=C1c2ccccc2C(Nc2ccc(S(=O)(=O)N3CCOCC3)cc2)N1c1cccnc1 (stereo not given)
9	CCCCSc1nnc([C@H](C)NC(=O)OC(C)(C)C)o1
10	COc1cc(NC(=O)CN(c2ccc(C)cc2)S(=O)(=O)c2c(C)nn(C)c2C)cc(OC)c1
screen / no. | 6 | 7 | 8 | 9 | 10
26S disassembly | -3.0 | -2.0 | -1.6 | 0.1 | -1.5
VCAM-1 up | i | nt | nt | i | nt

11	Cc1ccnc(NS(=O)(=O)c2cccc3nsnc23)c1
12	CCN1CCN(C(=O)c2nn(-c3ccc(C)cc3)c(=O)c3c2c2ccccc2n3C)CC1
13	CCN(CC)C(=O)CN(c1cc(Cl)ccc1OC)S(C)(=O)=O
14	COC(=O)c1cc2ccsc2n1Cc1nc(-c2ccc(OC)cc2)oc1C
15	CCC1Oc2ccc(C)cc2N(CC(=O)NCCN2C(C)CCCC2C)C1=O (stereo not given)
screen / no. | 11 | 12 | 13 | 14 | 15
26S disassembly | 0.5 | -0.1 | -0.3 | 1.4 | -1.1
VCAM-1 up | nt | nt | i | i | nt

16	CCOC(=O)c1[nH]c(C)c(C(=O)NCc2ccccn2)c1C
17	Cc1ccc(C)c(NC(=O)c2nnn(Cc3ccccc3)c2N)c1
18	COc1cccc(NC(=O)COc2ccccc2C(N)=O)c1
19	O=C(CCNS(=O)(=O)c1ccc2c(c1)CCC(=O)N2)NCc1cccnc1
20	CCN(CC)S(=O)(=O)c1cccc(C(=O)Nc2ccc(C#N)cc2)c1
screen / no. | 16 | 17 | 18 | 19 | 20
26S disassembly | 0.9 | -0.7 | -1.2 | 0.8 | -0.5
VCAM-1 up | i | nt | i | nt | nt

21	Cn1c(Cn2c(=O)sc3ccccc32)nnc1SCC(=O)Nc1ccc2c(c1)OCO2
22	CCC(=O)N1CCc2cc(S(=O)(=O)CCC(=O)Nc3ccc(F)c(F)c3)ccc21
23	Cc1cccc(-n2c(N)c(C(=O)N3CCN(C)CC3)sc2=S)c1
24	CCCC(=O)N1CC2(C)CN(C(=O)CCC)CC(CCC)(C1)C2=O
25	Cc1ccc(Cn2c(SCCN3CCCCC3)nc3c2c(=O)[nH]c(=O)n3C)cc1
screen / no. | 21 | 22 | 23 | 24 | 25
26S disassembly | 0.7 | -0.1 | 4.3 | 0.4 | 0.2
VCAM-1 up | nt | i | i | nt | i

26	Cc1cccc(Nc2nn3c(=O)c4ccccc4nc3s2)c1
27	Cc1ccc(S(=O)(=O)C2(C(=O)NC3CCCC3)CC2)cc1
28	CCOc1ccc(-n2c(Cc3cc(=O)[nH]c(=O)[nH]3)nnc2SC(C)C(=O)OC)cc1 (stereo not given)
29	COCCNC(=O)c1ccc(CS(=O)(=O)c2ccccc2)o1
30	COc1ccc(C(N)CCc2ccco2)cc1 (stereo not given)
screen / no. | 26 | 27 | 28 | 29 | 30
26S disassembly | -3.3 | 1.9 | 1.5 | -1.4 | -15
VCAM-1 up | nt | i | nt | nt | nt

# 3 of the compounds above, field by field:
28. CCOc1ccc(-n2c(Cc3cc(=O)[nH]c(=O)[nH]3)nnc2SC(C)C(=O)OC)cc1 (stereo not given)
- 26S disassembly: 1.5
- VCAM-1 up: nt

29. COCCNC(=O)c1ccc(CS(=O)(=O)c2ccccc2)o1
- 26S disassembly: -1.4
- VCAM-1 up: nt

30. COc1ccc(C(N)CCc2ccco2)cc1 (stereo not given)
- 26S disassembly: -15
- VCAM-1 up: nt

# Other compounds:
31	Cc1c(C(=O)OCC(C)(C)CN(C)C)oc2ccccc12
32	CSc1ccc(S(=O)(=O)Nc2ccc3c(c2)OCCO3)cc1
33	Cc1ccc(NC(=O)CC2Oc3ccccc3NC2=O)c(C)c1 (stereo not given)
34	Cc1ncoc1C(=O)Nc1ccc2c(c1)OCCO2
35	CCCS(=O)(=O)N1CCCC(C(=O)NCCCN2CCCC2=O)C1 (stereo not given)
screen / no. | 31 | 32 | 33 | 34 | 35
26S disassembly | 2.4 | 0.2 | 0.7 | -1.6 | 0.8
VCAM-1 up | i | nt | nt | nt | nt

36	O=C(O)C1C2CCC(C2)C1C(=O)NCc1ccccn1 (stereo not given)
37	Cc1ccc(Cl)cc1NC(=O)CSc1nnc(C)n1-c1ccccc1
38	CCOC(=O)C1CCCN(C(=O)C2CCC(CNS(=O)(=O)c3ccc(NC(C)=O)cc3)CC2)C1 (stereo not given)
39	Cc1ccc2nc(NC(=O)CCNS(=O)(=O)c3ccc(Br)s3)sc2c1
40	CCOc1ccccc1CNC(=O)CCN1C(=O)COc2ccccc21
screen / no. | 36 | 37 | 38 | 39 | 40
26S disassembly | -0.1 | -0.5 | -0.5 | -0.7 | 1.0
VCAM-1 up | nt | i | nt | nt | i

# Ordered by formula weight (ascending): part of the list above
40	CCOc1ccccc1CNC(=O)CCN1C(=O)COc2ccccc21
35	CCCS(=O)(=O)N1CCCC(C(=O)NCCCN2CCCC2=O)C1 (stereo not given)
38	CCOC(=O)C1CCCN(C(=O)C2CCC(CNS(=O)(=O)c3ccc(NC(C)=O)cc3)CC2)C1 (stereo not given)
screen / no. | 40 | 35 | 38
26S disassembly | 1.0 | 0.8 | -0.5
VCAM-1 up | i | nt | nt

# (continued)
41	CCOc1ccc(OCC)c(N=c2oc3c(C)ncc(CO)c3cc2C(N)=O)c1
42	Cc1nn(C(C)C(=O)N2CCN(c3ccccn3)CC2)c(=O)c2cc3occc3n12 (stereo not given)
43	O=C(Nc1cccnc1)C1CCCN(S(=O)(=O)c2cccc3nsnc23)C1 (stereo not given)
44	Cc1ccc(OCCN2CCN(C(=O)CCC(=O)Nc3nnc(C)s3)CC2)cc1
45	O=c1[nH]ncn2cccc12
screen / no. | 41 | 42 | 43 | 44 | 45
26S disassembly | -0.2 | -0.8 | -1.3 | 12 | ?
VCAM-1 up | nt | nt | nt | i | nt

# 5 records drawn at random from those above, as already listed:
45	O=c1[nH]ncn2cccc12
43	O=C(Nc1cccnc1)C1CCCN(S(=O)(=O)c2cccc3nsnc23)C1 (stereo not given)
44	Cc1ccc(OCCN2CCN(C(=O)CCC(=O)Nc3nnc(C)s3)CC2)cc1
41	CCOc1ccc(OCC)c(N=c2oc3c(C)ncc(CO)c3cc2C(N)=O)c1
42	Cc1nn(C(C)C(=O)N2CCN(c3ccccn3)CC2)c(=O)c2cc3occc3n12 (stereo not given)
screen / no. | 45 | 43 | 44 | 41 | 42
26S disassembly | ? | -1.3 | 12 | -0.2 | -0.8
VCAM-1 up | nt | nt | i | nt | nt

# Further records follow.
46	COc1cc2c(OC)cccc2cc1C(=O)O
47	Cc1ccc(-c2nnc(SC(C)C#N)n2N)cc1 (stereo not given)
48	COCCn1c(SCC(=O)N2CCc3ccccc32)nc2c(c1=O)SC(C)C2 (stereo not given)
49	Cc1cc(C)n(-c2nc(C)nc3c2cnn3-c2ccccc2)n1
50	Cc1ccc(CC2C(=O)N(c3ncccn3)C(=O)C2C)cc1 (stereo not given)
screen / no. | 46 | 47 | 48 | 49 | 50
26S disassembly | -1.0 | 1.7 | 0.0 | -1.4 | 0.6
VCAM-1 up | i | i | i | i | nt

51	COc1ccccc1-n1c(SCC(=O)Nc2nnc(C)s2)nc2c(c1=O)SCC2
52	O=C(C1CC1)N1CCN=C1SCc1cccc(C(F)(F)F)c1
53	CCCCN(CCCC)C(=O)CCS(=O)(=O)c1ccc2c(c1)n(C)c(=O)c(=O)n2C
54	Cn1cc(C(=O)NC2CCCCC2)c(=O)c2cc(S(=O)(=O)N3CCCC3)ccc21
55	O=C(CCS(=O)(=O)c1ccc(Br)s1)NCc1cccs1
screen / no. | 51 | 52 | 53 | 54 | 55
26S disassembly | -0.3 | -0.1 | 0.8 | -0.7 | 0.1
VCAM-1 up | nt | nt | nt | nt | nt

56	O=C(CCn1cccc1)NCc1ccc(Cl)cc1
57	COc1ccc(C2/C(=C(/O)c3ccccc3)C(=O)C(=O)N2CC(C)O)c(OC)c1 (stereo not given)
58	COc1cc(CN/C(C)=C(\C#N)C(N)=O)cc(OC)c1OC
59	Cc1cccn2c(=O)c3cc(C(=O)N4CCCc5ccccc54)n(C)c3nc12
60	Cc1[nH]c2ccccc2c(=O)c1CN(C)Cc1ccccc1
screen / no. | 56 | 57 | 58 | 59 | 60
26S disassembly | 0.4 | 0.4 | -1.7 | 1.5 | 1.5
VCAM-1 up | nt | nt | nt | i | i

61	Cc1ccc(OCC2Cn3c(nc4c3c(=O)n(C)c(=O)n4C)O2)cc1 (stereo not given)
62	NC(=O)C1CCN(c2nc(-c3ccccc3)nc3ccccc23)CC1
63	O=C(NCc1ccccn1)C1CCCN(Cc2cnn(-c3ccccc3)c2-n2cccc2)C1 (stereo not given)
64	Cc1ccc(C)c(N2CCN(C(=O)CCCOc3cc(=O)n(C)c4ccccc34)CC2)c1
65	CC(C)c1ccc(NC(=O)C2C3C=CC4(CN(CCCN5CCOCC5)C(=O)C24)O3)cc1 (stereo not given)
screen / no. | 61 | 62 | 63 | 64 | 65
26S disassembly | -0.2 | -0.9 | -1.9 | 0.1 | 0.0
VCAM-1 up | i | i | nt | nt | nt

66	O=C(Nc1ccncc1)c1cncc(Br)c1
67	CC1CCN(S(=O)(=O)N2CCC(C(=O)NCc3cccs3)CC2)CC1
68	COc1ccc(-c2cc(C(F)(F)F)n3nc(C(=O)N4CCOCC4)nc3n2)cc1
69	S=c1[nH]nc(-c2ccco2)n1-c1cccc2ccccc12
70	Cc1ccc(N2CCN(C(=O)C3CCN(S(=O)(=O)c4cccc5nsnc45)CC3)CC2C)cc1 (stereo not given)
screen / no. | 66 | 67 | 68 | 69 | 70
26S disassembly | -0.7 | -0.8 | -1.2 | -0.9 | -2.8
VCAM-1 up | i | nt | i | i | nt

71	CCN(C(=O)COC(=O)c1cc(C)n(-c2ccc(F)cc2)c1C)C1CCS(=O)(=O)C1 (stereo not given)
72	CCOc1ccc(C(C)=O)cc1N1C(=O)C2C3C=CC(C3=C(C)C)C2C1=O (stereo not given)
73	Cc1ccc(OCC(=O)Nc2ccc(S(=O)(=O)Nc3onc(C)c3C)cc2)cc1
74	COC(=O)CSc1nc2ncc(Cl)cc2[nH]1
75	CC(=O)NC(CCS(C)(=O)=O)C(=O)Nc1ccc(C)c(F)c1 (stereo not given)
screen / no. | 71 | 72 | 73 | 74 | 75
26S disassembly | 0.7 | -0.7 | 6.0 | -1.5 | -2.1
VCAM-1 up | i | nt | nt | i | nt
